Sa growth inh: S. aureus growth inhibition at 42 and 30 °C, primary screen, LtaS inhibitor project, RN4220, two temperatures | OD600, 20 h, 42 °C; hits give low values | relative growth, % (concentration not given with the values) | 0.53% of 170,000 active;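 active = growth at 42 °C up to 50% and 20 or more points under that at 30 °C, or under 10% at both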;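 note: 300 nL library stock went into each well; scaled to the means of positive and negative controls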
HCMV NEC inh: inhibitors of HCMV UL50-UL53 interaction, biochemical, HTRF; AID 1918969, 2023; inhibition, % (test concentration not listed); HCMV UL50-UL53 nuclear egress complex (human cytomegalovirus); normalized percent inhibition; 0.15% of 190,000 active;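 active = both replicates at 50% or more, plus weaker picks with an unusually low signal ratio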;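 note: stock transfer was 100 nL into about 20 µL; 0% = negative control wells and 100% = wells with untagged competitor protein; inactives centre near -12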
GIV-Gai inh: inhibitors of GIV peptide binding to Galpha-i3, primary screen, biochemical, fluorescence polarization, FITC-GIV GBA peptide, rat Galphai3; Guanine nucleotide-binding protein G(i) subunit alpha-3 (Rattus norvegicus), P08753; 90 min; hits give low values; scaled: aluminum fluoride 0%, vehicle 100%; percent of control (FP), % (no concentration beside the values); 0.42% of 210,000 active;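 active = replicate mean at 85% of control or lower, very high polarization wells dropped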;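 note: wells of about 15 µL received 100 nL stock; the first replicate is given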
Target sequence (P08753 whole entry, looked up): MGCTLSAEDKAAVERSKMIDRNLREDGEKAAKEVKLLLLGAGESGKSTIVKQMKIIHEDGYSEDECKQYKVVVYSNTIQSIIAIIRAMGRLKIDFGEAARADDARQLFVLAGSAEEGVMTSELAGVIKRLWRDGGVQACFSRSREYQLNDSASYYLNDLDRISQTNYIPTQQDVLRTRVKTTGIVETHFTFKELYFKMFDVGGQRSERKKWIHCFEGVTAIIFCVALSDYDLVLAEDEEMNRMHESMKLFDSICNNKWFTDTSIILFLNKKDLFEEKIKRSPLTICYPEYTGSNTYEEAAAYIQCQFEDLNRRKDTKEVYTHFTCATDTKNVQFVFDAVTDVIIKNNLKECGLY
Sa growth inh second temp: also measured in Sa growth inh; calls as there; relative growth, %; measured here: growth at 30 °C;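 optical density after 20 h as mean of two plates; 100% = untreated growth and lower means inhibition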
Numbers without * were called inactive; nt = not tested or not shown; & = joins results of further samples.

1) CCN(CC)S(=O)(=O)c1ccc2c(c1)nc(SC1CCOC1=O)n2CC (stereo unspecified)
2) O=C(NC1CCCC1)C1CCN(S(=O)(=O)c2cccc3nonc23)CC1
3) CCOC(=O)c1nnc2c(-c3ccc(OC)cc3)c(C)nn2c1N
4) COc1ccccc1OCC(=O)NCC(c1ccccc1)c1c[nH]c2ccccc12 (stereo unspecified)
5) c1nc2nc3c(c(NC4CCCCCCC4)n2n1)CCC3
6) O=C(c1ccc(Br)cc1)N1CCC(c2nc3ccccc3s2)CC1
7) O=C(Cn1cnc2ccccc21)NN=C1C2CC3CC(C2)CC1C3
8) CC(C)C(C(=O)Nc1nccs1)c1ccc(Cl)cc1 (stereo unspecified)

assay / compound,1,2,3,4,5,6,7,8
Sa growth inh,103.6,103.8,90.8,nt,nt,98.5,104.0,101.2
Sa growth inh second temp,99.4,83.8,103.1,nt,nt,63.4,95.3,90.1
HCMV NEC inh,-36.6,nt,-29.4,-26.2,-23.7,1.2&7.1,-6.2,-6.9
GIV-Gai inh,nt,106.0,106.7,101.1,104.3,101.9&110.1,nt,nt

9) N#CC1(C#N)C2C=CC(C2)C1(C#N)C#N
10) CN(C)c1ccc(C(=O)OCC(=O)c2cccc(C(F)(F)F)c2)cc1
11) CCOC(=O)N1CCC(NC(=O)Cn2c3ccccc3c(=O)c3ccccc32)CC1
12) Cc1cc2cc(CNC(=O)CC(C)C)ccc2[nH]1
13) CC(C)NC(=O)NC(=O)c1ccccc1
14) O=C(Sc1cccc2cccnc12)N1CCOCC1
15) CCOC(=O)c1ccc(N2C(=O)c3n[nH]c(C)c3C2c2ccccc2OC)cc1 (stereo unspecified)
16) COCCOC(=O)c1c(NC(=O)COC(=O)[C@@H]2CCCN2S(C)(=O)=O)sc(C(N)=O)c1C

assay / compound,9,10,11,12,13,14,15,16
Sa growth inh,45.8,95.9,nt,nt,103.2,95.0,95.0,107.9
Sa growth inh second temp,2.3,87.6,nt,nt,99.5,77.2,71.7,94.6
HCMV NEC inh,-18.0,-34.3,-1.5,-13.4&-35.7,-5.5,-15.0,-21.6,-7.4
GIV-Gai inh,98.2,nt,106.8,100.5,103.1,104.1,103.1,nt

17) O=C(Cc1c(O)c2ccccc2oc1=O)c1ccc(C(F)(F)F)cc1
18) O=C(CN1CCn2nc(-c3ccccc3)cc2C1=O)N1CCOCC1
19) CC(=O)Oc1ccc(C(=O)Nc2cccc(-c3nc4ccc(NC(=O)c5ccc(OC(C)=O)cc5)cc4o3)c2)cc1
20) O=C1C2C(C(=O)C3C1C1C=CC3C13CC3)C1C=CC2C12CC2 (stereo unspecified)
21) CC(C)CC(=O)Nc1cccc(-c2cn3ccsc3n2)c1
22) CC1CCCC(C)N1CCCNC(=O)c1csc2c1CCCC2 (stereo unspecified)
23) O=C(NCC1CCCO1)c1nn(-c2ccc(Cl)cc2)nc1CO (stereo unspecified)
24) COC(=O)Nc1c(Cl)nsc1S(=O)(=O)Cc1ccccc1

assay / compound,17,18,19,20,21,22,23,24
Sa growth inh,94.4,nt,nt,101.4,102.6,115.9,111.4,92.3
Sa growth inh second temp,93.4,nt,nt,101.7,83.2,91.2,98.8,85.1
HCMV NEC inh,-5.4,-5.4,4.0,2.9,-20.6,-10.0,20.1&-21.5,-3.2
GIV-Gai inh,99.1,100.3,104.2,97.0,103.7,103.2,104.1&107.1,nt

25) Cc1cc(-c2cc(S(=O)(=O)NCCc3sccc3C)c(C)s2)on1
26) COC(=O)C(c1ccccc1)C1(O)CC(C)N(C)CC1C (stereo unspecified)
27) O=C1CC(c2ccccc2)c2c(ccc3ccccc23)N1 (stereo unspecified)
28) CN(C)c1ccc(C2N3CC4(C)CN2CC(C)(C3)C4O)cc1 (stereo unspecified)
29) COc1ccc(C(=O)Nc2nnc(-c3ccccc3)o2)cc1OC
30) Cc1nn(CCC#N)c(C)c1Cc1c(Cl)cccc1Cl
31) C=CCn1c2ccccc2c2nnc(SCC(=O)OCN3C(=O)c4ccccc4C3=O)nc21
32) COC(=O)c1ccc(S(=O)(=O)NNc2c(Cl)cncc2Cl)n1C

assay / compound,25,26,27,28,29,30,31,32
Sa growth inh,nt,106.3,101.8,nt,93.5,90.5,89.9,89.7
Sa growth inh second temp,nt,89.9,102.7,nt,81.0,91.1,80.8,80.9
HCMV NEC inh,-18.8,-2.1,nt,-35.1,2.3,-4.2,-17.4,-32.3
GIV-Gai inh,99.6,nt,99.7,100.2,nt,101.6,102.8,101.7

Ordered by formula weight (ascending): 14 of the compounds above.
27) O=C1CC(c2ccccc2)c2c(ccc3ccccc23)N1 (stereo unspecified)
21) CC(C)CC(=O)Nc1cccc(-c2cn3ccsc3n2)c1
28) CN(C)c1ccc(C2N3CC4(C)CN2CC(C)(C3)C4O)cc1 (stereo unspecified)
30) Cc1nn(CCC#N)c(C)c1Cc1c(Cl)cccc1Cl
29) COc1ccc(C(=O)Nc2nnc(-c3ccccc3)o2)cc1OC
22) CC1CCCC(C)N1CCCNC(=O)c1csc2c1CCCC2 (stereo unspecified)
18) O=C(CN1CCn2nc(-c3ccccc3)cc2C1=O)N1CCOCC1
24) COC(=O)Nc1c(Cl)nsc1S(=O)(=O)Cc1ccccc1
17) O=C(Cc1c(O)c2ccccc2oc1=O)c1ccc(C(F)(F)F)cc1
32) COC(=O)c1ccc(S(=O)(=O)NNc2c(Cl)cncc2Cl)n1C

assay / compound,27,21,28,30,29,22,18,24,17,32
Sa growth inh,101.8,102.6,nt,90.5,93.5,115.9,nt,92.3,94.4,89.7
Sa growth inh second temp,102.7,83.2,nt,91.1,81.0,91.2,nt,85.1,93.4,80.9
HCMV NEC inh,nt,-20.6,-35.1,-4.2,2.3,-10.0,-5.4,-3.2,-5.4,-32.3
GIV-Gai inh,99.7,103.7,100.2,101.6,nt,103.2,100.3,nt,99.1,101.7

25) Cc1cc(-c2cc(S(=O)(=O)NCCc3sccc3C)c(C)s2)on1
31) C=CCn1c2ccccc2c2nnc(SCC(=O)OCN3C(=O)c4ccccc4C3=O)nc21
16) COCCOC(=O)c1c(NC(=O)COC(=O)[C@@H]2CCCN2S(C)(=O)=O)sc(C(N)=O)c1C
19) CC(=O)Oc1ccc(C(=O)Nc2cccc(-c3nc4ccc(NC(=O)c5ccc(OC(C)=O)cc5)cc4o3)c2)cc1

assay / compound,25,31,16,19
Sa growth inh,nt,89.9,107.9,nt
Sa growth inh second temp,nt,80.8,94.6,nt
HCMV NEC inh,-18.8,-17.4,-7.4,4.0
GIV-Gai inh,99.6,102.8,nt,104.2

(cont.)
33) Cc1ccc(-c2noc(CN(C(=O)CCc3ccccc3)C(C)C)n2)cc1
34) COc1ccc(N2CCN(c3nccn4nc(-c5ccc(C)cc5)cc34)CC2)cc1
35) CN(C)c1ccc(C2NCC(CSc3nc4ccccc4s3)O2)cc1 (stereo unspecified)
36) COc1ccc(NC(=O)c2ccccc2OC)cc1OC
37) C=CCN(CC=C)C(=S)Nc1ccc(S(=O)(=O)N2CCOCC2)cc1
38) O=S(=O)(c1ccc(-n2cccn2)cc1)N1CCCC2CCCCC21 (stereo unspecified)
39) COc1cc(-c2cc(NC(=O)Cc3noc4ccc(C)cc34)on2)cc(OC)c1OC
40) CC1CCC2C(=O)N(CNc3ccc(Oc4ccc(Br)cc4)cc3)C(=O)C2C1 (stereo unspecified)

assay / compound,33,34,35,36,37,38,39,40
Sa growth inh,111.0,nt,102.5,101.7,92.2,103.5,76.5,nt
Sa growth inh second temp,109.0,nt,83.3,111.8,94.7,103.5,77.0,nt
HCMV NEC inh,-13.7,-21.7,-25.6,15.3,-9.3,nt,nt,-12.8
GIV-Gai inh,105.3,103.6,nt,100.2,nt,101.0,100.6,103.8

Compound profiles, as listed above. Screens in order: Sa growth inh	Sa growth inh second temp	HCMV NEC inh	GIV-Gai inh
`O=C(Sc1cccc2cccnc12)N1CCOCC1` across the screens: 95.0	77.2	-15.0	104.1
`N#CC1(C#N)C2C=CC(C2)C1(C#N)C#N` across the screens: 45.8	2.3	-18.0	98.2

Other entries follow:
41) CSc1nnc(-c2ccc(S(=O)(=O)N3CCCC3)cc2)n1C
42) CC1CCCN(Cc2c(O)ccc3c(=O)c(-c4ccc(Cl)cc4)c(C(F)(F)F)oc23)C1 (stereo unspecified)
43) Cc1cccc(N2CCN(C(=O)CCn3c(=S)[nH]c4cc5c(cc4c3=O)OCO5)CC2)c1C
44) CC1CCN(S(=O)(=O)c2ccc3nc(N4CCN(c5ccc(F)cc5)CC4)ccc3c2)CC1
45) Cc1ccccc1C(=O)Nc1ccc2nc(NC(=O)c3ccccc3C)sc2c1
46) O=C(CCn1c(=O)c2cccn2c2ccccc21)Nc1ccccc1F
47) NC(=O)SCC(=O)Nc1ccc(Cl)cc1Cl
48) Cc1cc(F)ccc1NCc1ccccc1-c1nnc(-c2ccccc2Cl)o1

assay / compound,41,42,43,44,45,46,47,48
Sa growth inh,137.1,107.1,111.9,97.6,nt,90.3,37.0,120.9
Sa growth inh second temp,85.4,92.7,98.9,90.2,nt,88.6,19.2,87.0
HCMV NEC inh,-18.2,-22.3,nt,nt,-24.1,-4.6,-13.2,-2.8
GIV-Gai inh,100.5,102.4,100.5,105.9,99.9,101.8,nt,104.3

49) COc1ccc(CCNC(=O)c2ccc(OC)cc2)cc1
50) CCc1nn(CC(=O)NCc2ccc(OC)c(OC)c2)c(=O)c2cc3occc3n12
51) COc1ccc(OC)c(S(=O)(=O)N2CCCc3ccccc32)c1
52) CCCc1cc(=O)[nH]c(/N=C(\N)Nc2cc(Cl)ccc2OC)n1

assay / compound,49,50,51,52
Sa growth inh,75.9,105.2,119.6,102.7
Sa growth inh second temp,91.0,95.6,88.9,96.2
HCMV NEC inh,-24.4,1.9,nt,-7.4
GIV-Gai inh,103.2,102.5,93.6,99.2
